Screens from PubChem BioAssay.
A1 apoptosis 2 = A1 inhibition read as caspase activation. MEF A1-2A-BIM cells, caspase-Glo luminescence, 3 h; percent of clofoctol response, DMSO zero. caspase activation, % (concentration not given with the values). 24,000 tested, under 10 active. AID 2465; in the data active means caspase activation above about 5.9%;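 further: wells of about 30 µL received 50 nL stock; the first replicate is given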
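System: mouse embryonic fibroblasts co-expressing A1 and BIM (A1-2A-BIM), primed for A1 dependence; amount: 2500 cells/well; doses: 50 nL pinned compound; schedule: cells settled overnight, compound exposure 3 h at 37 °C, 5% CO2; detection: Caspase-Glo 3/7 luminescence, 1 h at room temperature; read-out: Caspase-3/7 activation, seen as rise in luminescence signal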
* marks the source's active call; other numbers are inactive results; & = joins results of further samples.

SMILES	A1 apoptosis 2
C[C@H](CO)N1C[C@H](C)[C@H](CN(C)C(=O)Nc2ccc(F)cc2)Oc2ccc(NC(=O)c3ccncc3)cc2C1=O	-0.2
COC(=O)C(CC#Cc1ccc2c(c1)[C@]1(C(=O)N2)[C@H](c2ccc(O)cc2)N2[C@H](c3ccccc3)[C@H](c3ccccc3)OC(=O)[C@H]2[C@@H]1C(=O)NC[C@H](O)c1ccccc1)C(=O)OC	-0.4
C[C@@H]1CN([C@H](C)CO)C(=O)c2cc(NS(=O)(=O)c3ccccc3)ccc2O[C@H]1CN(C)C	0.7
C[C@H](CO)N1C[C@H](C)[C@@H](CN(C)CC2CCCCC2)Oc2c(NC(=O)Nc3cccc4ccccc34)cccc2C1=O	-0.3
C[C@@H]1CN([C@H](C)CO)C(=O)c2cccc(NC(=O)C3CCOCC3)c2O[C@@H]1CN(C)Cc1ccc(C(=O)O)cc1	0.6
Cc1ccc(S(=O)(=O)N(C)C[C@@H]2Oc3ccc(NC(=O)NC(C)C)cc3CC(=O)N([C@H](C)CO)C[C@H]2C)cc1	1.6
C[C@@H]1CN([C@@H](C)CO)C(=O)c2cccc(NC(=O)Nc3ccccc3)c2O[C@H]1CN(C)Cc1ccc(C(=O)Nc2ccccc2N)cc1	0.3
C[C@H]1CN([C@@H](C)CO)C(=O)c2cc(NC(=O)NC3CCCCC3)ccc2O[C@@H]1CN(C)S(=O)(=O)c1ccc(Cl)cc1	0.7
C=C(C)[C@@H]1CC=C(/C=N/NC(=O)CCCCCC(=O)Nc2ccccc2O)CC1	0.6
COc1ccc(CN(C)C[C@@H]2OCCCC[C@@H](C)Oc3ccc(NC(=O)CCCCCC(=O)Nc4ccccc4N)cc3C(=O)N([C@H](C)CO)C[C@@H]2C)cc1	0.6
Cc1noc(C)c1NC(=O)Nc1ccc2c(c1)C(=O)N([C@@H](C)CO)C[C@@H](C)[C@@H](CN(C)C)OCCCC[C@H](C)O2	0.0
C[C@@H]1CN([C@H](C)CO)C(=O)c2cc(NC(=O)Nc3ccccc3)ccc2O[C@H]1CN(C)C(=O)Nc1ccc(C(F)(F)F)cc1	0.0
C[C@@H]1CN([C@@H](C)CO)C(=O)c2cc(NC(=O)Nc3ccccc3)ccc2O[C@@H]1CN(C)C(=O)Nc1ccccc1	-0.2
Cc1noc(C)c1S(=O)(=O)Nc1cccc2c1O[C@H](CN(C)C(=O)Nc1ccccc1)[C@H](C)CN([C@@H](C)CO)C2=O	0.2
C[C@@H]1CN([C@@H](C)CO)C(=O)Cc2cc(NC(=O)NC3CCCCC3)ccc2O[C@H]1CN(C)C(=O)Nc1cccc2ccccc12	-1.3
CCO[C@H]1OC(C(=O)N2CCN(Cc3ccc4c(c3)OCO4)CC2)=C[C@@H](C2CCCCC2)[C@@H]1CCCO	-1.1
C[C@@H]1CCCCO[C@H](CN(C)C(=O)CCCN(C)C)[C@H](C)CN([C@@H](C)CO)C(=O)c2cc(NC(=O)Nc3ccc4c(c3)OCO4)ccc2O1	0.1
Cc1noc(C)c1S(=O)(=O)Nc1ccc2c(c1)CC(=O)N([C@@H](C)CO)C[C@@H](C)[C@@H](CN(C)C(=O)Nc1cccc3ccccc13)O2	0.7
COc1ccc(NC(=O)Nc2ccc3c(c2)C(=O)N([C@@H](C)CO)C[C@@H](C)[C@H](CN(C)S(=O)(=O)c2ccc(OC)cc2)OCCCC[C@@H](C)O3)cc1	-0.8
CCCN(C)C[C@@H]1OCCCC[C@@H](C)Oc2ccc(NC(=O)NC(C)C)cc2C(=O)N([C@@H](C)CO)C[C@@H]1C	-0.5
C[C@@H]1CCCCO[C@@H](CN(C)Cc2ccc(C(=O)O)cc2)[C@H](C)CN([C@H](C)CO)C(=O)c2cc(NS(=O)(=O)c3ccccc3)ccc2O1	-1.4
Cc1noc(C)c1NC(=O)Nc1ccc2c(c1)C(=O)N([C@H](C)CO)C[C@@H](C)[C@H](CN(C)C(=O)Nc1c(C)noc1C)OCCCC[C@@H](C)O2	-0.2
C[C@H](CO)N1C[C@H](C)[C@@H](CN(C)C(=O)NC2CCCC2)OCc2cn(nn2)CCCC1=O	0.0
C[C@@H]1CN([C@H](C)CO)C(=O)Cc2cc(NC(=O)Cc3ccccc3)ccc2O[C@H]1CN(C)S(C)(=O)=O	0.2
CC(C)NC(=O)N(C)C[C@@H]1OCCCC[C@H](C)Oc2ccc(NC(=O)Cc3ccccc3)cc2C(=O)N([C@H](C)CO)C[C@H]1C	-0.5

Exported as labelled records: entries from further up.
C[C@@H]1CN([C@@H](C)CO)C(=O)c2cccc(NC(=O)Nc3ccccc3)c2O[C@H]1CN(C)Cc1ccc(C(=O)Nc2ccccc2N)cc1
  A1 apoptosis 2: 0.3

C[C@@H]1CCCCO[C@H](CN(C)C(=O)CCCN(C)C)[C@H](C)CN([C@@H](C)CO)C(=O)c2cc(NC(=O)Nc3ccc4c(c3)OCO4)ccc2O1
  A1 apoptosis 2: 0.1

C[C@@H]1CN([C@H](C)CO)C(=O)c2cc(NC(=O)Nc3ccccc3)ccc2O[C@H]1CN(C)C(=O)Nc1ccc(C(F)(F)F)cc1
  A1 apoptosis 2: 0.0

C[C@@H]1CN([C@H](C)CO)C(=O)c2cc(NS(=O)(=O)c3ccccc3)ccc2O[C@H]1CN(C)C
  A1 apoptosis 2: 0.7

Later entries.
SMILES	A1 apoptosis 2
Cc1noc(C)c1S(=O)(=O)Nc1ccc2c(c1)CC(=O)N([C@@H](C)CO)C[C@H](C)[C@@H](CN(C)C(=O)Nc1ccc(C(F)(F)F)cc1)O2	-0.9
Cc1noc(C)c1S(=O)(=O)Nc1ccc2c(c1)C(=O)N([C@@H](C)CO)C[C@@H](C)[C@@H](CN(C)CC1CCCCC1)OCCCC[C@@H](C)O2	-0.4
CNC[C@H]1Oc2ccc(NC(=O)Nc3c(C)noc3C)cc2CC(=O)N([C@@H](C)CO)C[C@H]1C	-0.1
Cc1ccc(S(=O)(=O)Nc2cccc3c2O[C@H](CN(C)S(=O)(=O)c2c(C)noc2C)[C@@H](C)CN([C@H](C)CO)C3=O)cc1	0.7
COc1ccc(S(=O)(=O)N(C)C[C@@H]2Oc3c(NS(=O)(=O)c4cn(C)cn4)cccc3C(=O)N([C@@H](C)CO)C[C@H]2C)cc1	-0.1
C[C@@H]1CN([C@H](C)CO)C(=O)c2cc(NC(=O)C3CC3)ccc2O[C@H]1CN(C)Cc1ccc(C(F)(F)F)cc1	-0.6
CC(C)NC(=O)N(C)C[C@H]1Oc2ccc(NC(=O)Nc3ccc(C(F)(F)F)cc3)cc2CC(=O)N([C@@H](C)CO)C[C@H]1C	0.5
C[C@@H]1CCCCO[C@@H](CN(C)Cc2ccc3c(c2)OCO3)[C@H](C)CN([C@@H](C)CO)C(=O)c2cc(NC(=O)Nc3ccc(F)cc3)ccc2O1	-0.5
Cc1noc(C)c1NC(=O)N(C)C[C@H]1OCCCC[C@@H](C)Oc2ccc(NS(=O)(=O)c3ccc(F)cc3)cc2C(=O)N([C@H](C)CO)C[C@@H]1C	0.2
C[C@H](CO)N1C[C@H](C)[C@H](CN(C)C(=O)Nc2ccccc2)Oc2c(NC(=O)C3CCOCC3)cccc2C1=O	-1.6
COc1ccc(NC(=O)N(C)C[C@H]2Oc3c(NS(=O)(=O)c4cn(C)cn4)cccc3C(=O)N([C@@H](C)CO)C[C@@H]2C)cc1	0.2
C[C@@H]1CN([C@@H](C)CO)C(=O)c2cc(NS(=O)(=O)c3ccc(F)cc3)ccc2O[C@@H](C)CCCCO[C@H]1CN(C)S(=O)(=O)c1ccc(Cl)cc1	-0.5
CCCN(C)C[C@@H]1OCCCC[C@@H](C)Oc2ccc(NC(=O)Nc3ccc(F)cc3)cc2C(=O)N([C@H](C)CO)C[C@@H]1C	-0.9
Cc1noc(C)c1NC(=O)Nc1ccc2c(c1)C(=O)N([C@H](C)CO)C[C@H](C)[C@H](CN(C)Cc1ccccc1)O2	1.2
Cc1noc(C)c1NC(=O)N(C)C[C@H]1Oc2ccc(NC(=O)Cn3cnnn3)cc2CC(=O)N([C@@H](C)CO)C[C@H]1C	0.7
CNC[C@H]1Oc2ccc(NC(=O)NC(C)C)cc2CC(=O)N([C@@H](C)CO)C[C@H]1C	-1.1
C[C@@H]1CN([C@H](C)CO)C(=O)c2cc(NS(=O)(=O)c3ccccc3)ccc2O[C@@H](C)CCCCO[C@@H]1CN(C)Cc1ccc(C(=O)O)cc1	-0.5
C[C@@H]1CN([C@H](C)CO)C(=O)c2cc(NS(=O)(=O)c3ccccc3)ccc2O[C@@H](C)CCCCO[C@@H]1CN(C)C(=O)CCC(F)(F)F	-1.5
C=CCNC(=O)[C@@H]1[C@H]2C(=O)O[C@H](c3ccccc3)[C@H](c3ccccc3)N2[C@H](c2ccc(O)cc2)[C@@]12C(=O)N(C(=O)OCCOC)c1ccccc12	-0.9
COc1ccc([C@@H]2C=C(C(=O)O)O[C@H](OCCCCO)C2)cc1	0.0&0.0
CNC[C@H]1Oc2ccc(NC(=O)CCC(F)(F)F)cc2CC(=O)N([C@H](C)CO)C[C@@H]1C	-0.1
C[C@@H]1CCCCO[C@H](CN(C)S(=O)(=O)c2ccc(Cl)cc2)[C@H](C)CN([C@@H](C)CO)C(=O)c2cc(NC(=O)NC3CCCCC3)ccc2O1	1.3
CC(C)NC(=O)Nc1ccc2c(c1)C(=O)N([C@H](C)CO)C[C@H](C)[C@@H](CN(C)Cc1ccc(C(F)(F)F)cc1)O2	0.8
C[C@@H]1CN([C@@H](C)CO)C(=O)c2cc(NC(=O)Nc3ccc(C(F)(F)F)cc3)ccc2O[C@@H](C)CCCCO[C@@H]1CN(C)C(=O)C1CCCCC1	-0.7
C[C@H]1CN([C@@H](C)CO)C(=O)c2cc(NC(=O)Nc3ccc4c(c3)OCO4)ccc2O[C@@H]1CN(C)S(=O)(=O)c1cn(C)cn1	-0.3

By substructure: the entries above with a Cl atom
SMILES	A1 apoptosis 2
C[C@H]1CN([C@@H](C)CO)C(=O)c2cc(NC(=O)NC3CCCCC3)ccc2O[C@@H]1CN(C)S(=O)(=O)c1ccc(Cl)cc1	0.7
C[C@@H]1CN([C@@H](C)CO)C(=O)c2cc(NS(=O)(=O)c3ccc(F)cc3)ccc2O[C@@H](C)CCCCO[C@H]1CN(C)S(=O)(=O)c1ccc(Cl)cc1	-0.5
C[C@@H]1CCCCO[C@H](CN(C)S(=O)(=O)c2ccc(Cl)cc2)[C@H](C)CN([C@@H](C)CO)C(=O)c2cc(NC(=O)NC3CCCCC3)ccc2O1	1.3

Carrying on.
SMILES	A1 apoptosis 2
C[C@H](CO)N1C[C@H](C)[C@H](CN(C)S(=O)(=O)c2cccs2)Oc2ncc(-c3ccc(F)cc3)cc2C1=O	-0.4
C[C@@H]1CN([C@@H](C)CO)C(=O)c2cc(NS(=O)(=O)c3cn(C)cn3)ccc2O[C@@H](C)CCCCO[C@@H]1CN(C)S(=O)(=O)c1cccs1	0.2
C[C@@H]1CCCCO[C@@H](CN(C)C(=O)Nc2ccccc2)[C@@H](C)CN([C@H](C)CO)C(=O)c2cc(NS(=O)(=O)c3ccc(F)cc3)ccc2O1	1.6
C[C@@H]1CN([C@H](C)CO)C(=O)CCCn2cc(nn2)CO[C@H]1CN(C)C(=O)CCC(F)(F)F	0.5
COc1ccc(NC(=O)Nc2ccc3c(c2)C(=O)N([C@H](C)CO)C[C@H](C)[C@@H](CN(C)S(=O)(=O)c2cn(C)cn2)OCCCC[C@@H](C)O3)cc1	1.0
CC(C)NC(=O)N(C)C[C@@H]1OCCCC[C@H](C)Oc2ccc(N(C)C)cc2C(=O)N([C@@H](C)CO)C[C@@H]1C	-0.2
Cc1noc(C)c1NC(=O)N(C)C[C@@H]1Oc2ccc(NC(=O)Nc3ccccc3)cc2C(=O)N([C@H](C)CO)C[C@@H]1C	0.2
COc1ccc(S(=O)(=O)N(C)C[C@H]2Oc3ccc(NC(=O)CCC(F)(F)F)cc3C(=O)N([C@H](C)CO)C[C@@H]2C)cc1	-0.3
C[C@H](CO)N1C[C@H](C)[C@H](CN(C)C(=O)Nc2ccccc2)OCCCC[C@H](C)Oc2ccc(NC(=O)CCC(F)(F)F)cc2C1=O	0.4
C[C@@H]1CN([C@H](C)CO)C(=O)c2cccc(NC(=O)c3ccncc3)c2O[C@@H]1CN(C)S(=O)(=O)c1cccs1	-0.6
CC(C)NC(=O)N(C)C[C@H]1OCCCC[C@@H](C)Oc2ccc(NC(=O)Nc3ccc(F)cc3)cc2C(=O)N([C@H](C)CO)C[C@@H]1C	-1.6
CC(C)NC(=O)Nc1ccc2c(c1)CC(=O)N([C@H](C)CO)C[C@@H](C)[C@H](CN(C)Cc1ccc(-c3ccccc3)cc1)O2	-0.6
COc1ccc(S(=O)(=O)Nc2ccc3c(c2)C(=O)N([C@H](C)CO)C[C@@H](C)[C@H](CN(C)S(=O)(=O)c2ccc(C)cc2)OCCCC[C@@H](C)O3)cc1	-0.7
Cc1noc(C)c1NC(=O)Nc1ccc2c(c1)C(=O)N([C@H](C)CO)C[C@@H](C)[C@H](CN(C)Cc1ccccc1)OCCCC[C@@H](C)O2	-0.4
Cc1ccc(S(=O)(=O)N[C@@H]2CCCN(Cc3cccc(OCCO)c3)C2)cc1	-0.4
Cc1ccc(S(=O)(=O)N(C)C[C@@H]2Oc3ccc(NS(=O)(=O)c4c(C)noc4C)cc3C(=O)N([C@@H](C)CO)C[C@@H]2C)cc1	0.0
C[C@@H]1CN([C@H](C)CO)C(=O)c2cc(NC(=O)Cc3ccccc3)ccc2O[C@@H](C)CCCCO[C@@H]1CN(C)C(=O)c1ccncc1	-1.3
CNC[C@H]1Oc2ccc(NS(=O)(=O)c3c(C)noc3C)cc2CC(=O)N([C@H](C)CO)C[C@@H]1C	-0.2
Cc1ccc(S(=O)(=O)Nc2ccc3c(c2)CC(=O)N([C@H](C)CO)C[C@H](C)[C@H](CN(C)CC2CCCCC2)O3)cc1	0.9

The list is partial. The share of hits here may be higher or lower than overall.
